YopH inh = YopH tyrosine phosphatase inhibitors, primary screen, biochemical, fluorescence Ex485/Em525; inhibition, %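 (about 10 µM by stock and volumes)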; actives 0.16% (n = 140,000); AID 898, 2007;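 active = inhibition of 50% or more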;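 note: controls were vehicle for no effect and minimum signal wells for full effect; inactives centre near -20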
Mtb betalactam = beta-lactam sensitization of Mtb H37Rv, H37Rv; M. tuberculosis H37Rv growth with meropenem, percent inhibition; hits of this screen are not shown here; inhibition, % at 25 µM; actives 0.27% (n = 330,000); AID 434955, 2010;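 active = about 74% or more and at least 40 points above the plate without the antibiotic, then above 30% in a dose series; inconclusive = first-round hits that could not be retested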;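 note: growth measured after seven days incubation then overnight dye step; 0% = bacteria only wells and 100% = bacteria with antibiotic; twin plates without the antibiotic show which effects depend on it; some results filed as inactive read as strong as hits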
Arbovirus inh = antivirals against arbovirus infection, primary screen, cell-based, full library, 10K replicate subset | arbovirus infection cell-based antiviral screen | inhibition, % at 10 µM | actives 0.37% (n = 200,000) | AID 1251, 2008;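 active = inhibition from about 30%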;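 note: bluetongue infection of BSR cells; cell survival read as ATP light after 72 h; 0% = infected wells without compound and 100% = uninfected wells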
RecA intein inh = Mtb RecA intein splicing inhibitors, primary screen, biochemical, fluorescence, HTS; Protein RecA (Mycobacterium tuberculosis (strain ATCC 25618 / H37Rv)), P9WHJ3; cell-free RecA intein splicing; inhibition, %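 (about 9 µM by stock and volumes)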; actives 0.75% (n = 290,000); in the data active = inhibition above about 30%; inconclusive = no clear call, values can overlap the other calls;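 note: 0% = vehicle wells and 100% = reference inhibitor control wells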
Target sequence (P9WHJ3 whole entry, looked up): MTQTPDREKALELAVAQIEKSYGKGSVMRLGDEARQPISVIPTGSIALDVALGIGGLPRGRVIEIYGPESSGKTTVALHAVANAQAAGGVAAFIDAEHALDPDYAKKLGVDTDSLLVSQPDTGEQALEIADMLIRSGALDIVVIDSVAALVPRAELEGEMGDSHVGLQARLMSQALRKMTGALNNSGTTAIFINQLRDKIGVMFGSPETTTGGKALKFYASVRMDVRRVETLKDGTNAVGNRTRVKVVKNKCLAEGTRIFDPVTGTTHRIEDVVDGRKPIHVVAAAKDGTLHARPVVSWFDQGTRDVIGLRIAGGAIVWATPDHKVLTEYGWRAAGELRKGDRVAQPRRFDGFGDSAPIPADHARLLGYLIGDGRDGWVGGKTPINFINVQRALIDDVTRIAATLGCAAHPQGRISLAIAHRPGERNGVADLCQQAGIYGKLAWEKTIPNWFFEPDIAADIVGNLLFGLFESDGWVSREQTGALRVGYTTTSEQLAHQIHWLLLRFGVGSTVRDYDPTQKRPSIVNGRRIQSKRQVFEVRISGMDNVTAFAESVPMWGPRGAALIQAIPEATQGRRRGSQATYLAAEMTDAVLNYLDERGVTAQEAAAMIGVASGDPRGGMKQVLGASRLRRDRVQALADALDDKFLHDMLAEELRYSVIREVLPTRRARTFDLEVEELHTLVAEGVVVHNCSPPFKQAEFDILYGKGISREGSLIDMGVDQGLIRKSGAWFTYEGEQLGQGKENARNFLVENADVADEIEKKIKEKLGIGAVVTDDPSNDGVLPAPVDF
Mtb growth = M. tuberculosis H37Rv growth inhibitors, H37Rv strain (AID 1626); inhibition, % at 10 µM; hits with a dose series show IC50 in µM; M. tuberculosis H37Rv growth inhibition; higher % means a stronger effect; actives 0.95% (n = 220,000);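 active = confirmed in a dose series; inconclusive = inhibition above 80% but not taken into the dose series; inactive = below 80% or under 30% at every dose of the series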;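 note: bacteria incubated seven days before Alamar blue readout; 0% = bacteria only wells and 100% = bacteria with antibiotic wells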
Arbovirus inh repeat = recorded beside Arbovirus inh, whose call it bears; inhibition, %; measured here: 10K subset replicate screen; many hits read low in the repeat;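 first of two repeat runs on a subset; 0% = infected and 100% = uninfected wells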
* marks the source's active call; other numbers are inactive results; ? = inconclusive; . = no result given. Some of the compounds tested; the hit share may differ from the screen's.

SMILES | YopH inh | Mtb betalactam | Arbovirus inh | RecA intein inh | Mtb growth | others
Cc1ccc(CNC(=O)CC2C(=O)Nc3c2c(=O)n(C)c(=O)n3Cc2ccccc2)cc1 (stereo unspecified) | -13 | 2 | 2 | 1.0 | -6%
COc1ccccc1C1NC(=O)NC(C)=C1C(=O)Nc1cccc(C)c1C (stereo unspecified) | 3 | 3 | -2 | -1.0 | 4% | Arbovirus inh repeat=-3
CCCc1cc(=O)n2[nH]cc(-c3ccc(Cl)cc3)c2n1 | . | 98 | . | 0.3 | .
CCCNC(=O)c1onc(CSc2ccccn2)c1C(=O)NCCC | . | 10 | . | 3.2 | -8%
O=c1nc(N2CCCCC2)nc2n1CCO2 | -17 | 13 | -2 | -2.7 | -2%
COc1ccc2[nH]c(=O)c(CN(C(=O)c3ccco3)C(C)C)cc2c1 | . | -5 | . | 1.7 | 2%
COC(=O)c1ccc(COc2ccc(/C=C(\C#N)c3nc4ccccc4[nH]3)cc2OC)o1 | -46 | -4 | -5 | -4.2 | 3%
COc1ccc(S(=O)(=O)N2CCCC2C(=O)Nc2ccc(C(C)=O)cc2)cc1 (stereo unspecified) | -48 | -1 | -1 | -0.2 | -11% | Arbovirus inh repeat=1
COc1ccc(NC(=O)c2cc([N+](=O)[O-])ccc2N2CCCC2)cc1 | . | -5 | -1 | -2.5 | -2%
CCC/C(O)=C1\C(=O)CC(C)(C)CC1=Nc1cccc([N+](=O)[O-])c1 | . | -4 | . | -0.1 | .
CCCCCC(=O)NC(Nc1ccc(S(N)(=O)=O)cc1)C(Cl)(Cl)Cl (stereo unspecified) | -21 | 4 | 7 | 1.6 | 2%
CCN(CC)S(=O)(=O)c1ccc(C(=O)N2CCCCC2)cc1 | -1 | 10 | 3 | 1.6 | 0%
O=C(OCc1cc(=O)n2c(n1)sc1ccccc12)c1ccc2c(=O)n3c(nc2c1)CCC3 | . | -2 | . | -2.2 | -6%
COC(=O)c1cc(Cc2ccc(N)c(C(=O)OC)c2)ccc1N | -33 | -6 | -5 | 1.5 | 0%
N#CC1=C(SCc2ccc(C#N)cc2)N=C(N)C(c2nc(-c3ccccc3)cs2)C12CCCCC2 (stereo unspecified) | -71 | 57 | -1 | 3.5 | 57%
CCCC(C)C1(CC)C(=O)NC(=Nc2ccccc2OC)NC1=O (stereo unspecified) | -7 | ? | -4 | 0.8 | -4%
CCOC(=O)CSc1nnc2n(C3CCCCC3)c(=O)c3c4c(sc3n12)CCCC4 | -20 | 4 | -10 | 1.2 | -2%
N#Cc1ccc(CSc2nnc(NC(=O)CCc3nc4ccccc4c(=O)[nH]3)s2)cc1 | . | 8 | . | -0.9 | .
CNC(=O)COc1ncnc2scc(-c3ccc(F)cc3)c12 | . | -4 | -7 | 1.4 | 1%
O=c1[nH]c2ccc(Cl)cc2c(-c2ccccc2)c1SC(=S)N1CCCCC1 | 7 | -8 | -45 | 40* | -3%
CC(C(=O)c1ccc(-c2ccccc2)cc1)[n+]1cccc(C(N)=O)c1 (stereo unspecified) | . | 0 | . | -2.5 | .
O=C1CC(SC2=NCCS2)C(=O)N1c1ccc(Cl)cc1 (stereo unspecified) | 6 | -5 | 1 | 0.0 | -12%
Cn1c(C(=O)N2CCC(C(=O)N3CCN(Cc4ccc5c(c4)OCO5)CC3)CC2)cc2sccc21 | -25 | -3 | 0 | 0.4 | 7% | Arbovirus inh repeat=18
CCCOC(=O)C(C)n1cnc2scc(-c3ccc(C)cc3)c2c1=O (stereo unspecified) | . | 13 | . | 0.8 | .
CN(C(=O)C(=O)c1cn(CC(=O)N2CCCC2)c2ccccc12)C1CCCCC1 | . | -5 | . | 4.3 | .

In the list so far, these have a thiophene ring, fused or not.
SMILES | YopH inh | Mtb betalactam | Arbovirus inh | RecA intein inh | Mtb growth | others
CCOC(=O)CSc1nnc2n(C3CCCCC3)c(=O)c3c4c(sc3n12)CCCC4 | -20 | 4 | -10 | 1.2 | -2%
CNC(=O)COc1ncnc2scc(-c3ccc(F)cc3)c12 | . | -4 | -7 | 1.4 | 1%
Cn1c(C(=O)N2CCC(C(=O)N3CCN(Cc4ccc5c(c4)OCO5)CC3)CC2)cc2sccc21 | -25 | -3 | 0 | 0.4 | 7% | Arbovirus inh repeat=18
CCCOC(=O)C(C)n1cnc2scc(-c3ccc(C)cc3)c2c1=O (stereo unspecified) | . | 13 | . | 0.8 | .

Going on with the list.
SMILES | YopH inh | Mtb betalactam | Arbovirus inh | RecA intein inh | Mtb growth | others
COc1ccc2cc(C(=O)C3CCCN(Cc4cccc(C)n4)C3)ccc2c1 (stereo unspecified) | . | 96 | 15 | 2.9 | 7µM*
CCOC(=O)C1CCCN(CC(=O)Nc2nc(-c3ccccc3)cs2)C1 (stereo unspecified) | . | 1 | . | 8.0 | .
Cc1ccc(C(=O)N/N=C\c2cc3c(cc2Br)OCO3)s1 | -19 | 6 | 1 | 0.2 | 1%
CCOC(=O)C(NC(=O)CC)(Nc1ccc(S(=O)(=O)Nc2cc(C)on2)cc1)C(F)(F)F (stereo unspecified) | -33 | 0 | 7 | 1.1 | -2%
O=C(COc1cccc2ccccc12)NNC(=O)c1cccs1 | 1 | -6 | 4 | -0.4 | .
CCCNC(=O)COC(=O)/C=C/c1ccc(C)o1 | . | -7 | 15 | 0.1 | 2%
CC(=O)c1ccc(NC(=O)CN2C(=O)COc3ccc(S(=O)(=O)N4CCCC4)cc32)cc1 | . | 6 | . | 1.1 | .
COc1cc2cnc(Cl)nc2cc1OC | -21 | -6 | 4 | 1.1 | -2%
Cc1ccc(C(=O)NC2CCCC(C)C2C)cc1S(=O)(=O)N1CCCCC1 (stereo unspecified) | . | -5 | . | 1.8 | .
COc1ccc(OCc2nnc(SCC(=O)NC3CC3)n2C)cc1 | . | 3 | . | -2.6 | .
COc1ccc(N2C(=O)/C(=C\c3ccco3)N=C2SCC(=O)N(C(C)C)C(C)C)cc1Cl | -23 | -3 | 2 | 1.1 | 3%
O=C(C1CCC(=O)N1Cc1ccc(F)cc1)N1CCC2(CC1)OCCO2 (stereo unspecified) | -28 | -4 | 8 | -7.1 | -1%
CCc1cc(=O)[nH]c(SCC(=O)NCC2CCCO2)n1 (stereo unspecified) | . | -13 | . | -2.4 | .
COc1cccc(Nc2nnc(SCC(=O)N3CC(C)OC(C)C3)s2)c1 (stereo unspecified) | -5 | -19 | 3 | . | -10%
Cc1nccn1CCN(C)Cc1cn(Cc2ccccc2)nc1-c1ccc2c(c1)OCO2 | . | 4 | -14 | 0.4 | 0%
OC1CCN(C(=S)NCCc2ccccc2)CC1 | -7 | -7 | 10 | 0.7 | -7%
O=S(=O)(CC(c1ccccc1)N1CCCCC1)c1ccc(Cl)cc1 (stereo unspecified) | . | -7 | . | 2.6 | 15%
O=C(N/N=C/c1ccc([N+](=O)[O-])s1)c1cccc(Br)c1 | -5 | 98 | -14 | -3.4 | ?
Brc1ccccc1-n1nnc(-c2nccs2)n1 | . | -3 | -3 | -1.3 | -3%
Fc1ccc(CN2CCCCCC2)c(F)c1 | -33 | -10 | 2 | . | -1%
COc1cc(S(=O)(=O)N2CCCCC2)c(OC)cc1Br | . | -2 | -6 | 2.8 | -7%
O=C(COc1ccc(Cl)cc1Cl)Nc1ccc(S(=O)(=O)NC2=NCCCCC2)cc1 | -31 | 5 | 8 | -0.3 | -3%
O=C(NC(=S)Nc1ccc2c(c1)OCCO2)c1ccco1 | . | -7 | . | 0.4 | -2%
Nc1nnc(CSCc2ccc(Cl)cc2)s1 | -32 | -5 | 4 | -0.4 | 4%
c1ccc2nc(N3CCOCC3)c(N3CCOCC3)nc2c1 | -44 | 3 | -2 | -0.7 | -2%

Reprinted at random: four compounds from above
SMILES | YopH inh | Mtb betalactam | Arbovirus inh | RecA intein inh | Mtb growth | others
Cc1nccn1CCN(C)Cc1cn(Cc2ccccc2)nc1-c1ccc2c(c1)OCO2 | . | 4 | -14 | 0.4 | 0%
O=C(COc1ccc(Cl)cc1Cl)Nc1ccc(S(=O)(=O)NC2=NCCCCC2)cc1 | -31 | 5 | 8 | -0.3 | -3%
Cc1ccc(C(=O)N/N=C\c2cc3c(cc2Br)OCO3)s1 | -19 | 6 | 1 | 0.2 | 1%
COc1ccc(S(=O)(=O)N2CCCC2C(=O)Nc2ccc(C(C)=O)cc2)cc1 (stereo unspecified) | -48 | -1 | -1 | -0.2 | -11% | Arbovirus inh repeat=1

Five entries already listed, arranged by count of non-hydrogen atoms, highest first.
SMILES | YopH inh | Mtb betalactam | Arbovirus inh | RecA intein inh | Mtb growth | others
CC(=O)c1ccc(NC(=O)CN2C(=O)COc3ccc(S(=O)(=O)N4CCCC4)cc32)cc1 | . | 6 | . | 1.1 | .
COc1cccc(Nc2nnc(SCC(=O)N3CC(C)OC(C)C3)s2)c1 (stereo unspecified) | -5 | -19 | 3 | . | -10%
COc1ccc(OCc2nnc(SCC(=O)NC3CC3)n2C)cc1 | . | 3 | . | -2.6 | .
O=C(N/N=C/c1ccc([N+](=O)[O-])s1)c1cccc(Br)c1 | -5 | 98 | -14 | -3.4 | ?
Fc1ccc(CN2CCCCCC2)c(F)c1 | -33 | -10 | 2 | . | -1%

The listing continues.
SMILES | YopH inh | Mtb betalactam | Arbovirus inh | RecA intein inh | Mtb growth | others
COc1ccccc1OC(C)C(=O)Nc1ccc(S(=O)(=O)N2CCN(C)CC2)cc1 (stereo unspecified) | . | 3 | . | 0.8 | .
CCN(CC)C(=O)Oc1ccc2ccccc2c1Cl | -4 | 1 | -6 | 2.4 | 13%
COc1ccc(-c2noc(N3CCC(C(=O)NCCCN4CCCC(C)C4)CC3)n2)cc1 (stereo unspecified) | . | -2 | . | -3.5 | .
CS(=O)(=O)Nc1ccccc1C(=O)O | -37 | -8 | 0 | -2.1 | 3% | Arbovirus inh repeat=4
CCc1ccc(C2c3[nH]c4ccccc4c3CCN2C(=O)CNC(N)=O)cc1 (stereo unspecified) | . | -2 | -2 | 5.1 | 1%
COc1cccc(N(CC(=O)NCCSc2ccc(Cl)cc2)S(C)(=O)=O)c1 | 0 | -23 | 2 | -0.2 | -3%
C=CCn1c(O)c(N=NC(=S)Nc2ccccc2F)c2cc(S(=O)(=O)N3CCOCC3)ccc21 | . | 3 | -3 | 24 | 3%
O=C(NCc1ccccc1Cl)C(=O)NCC1OCCCN1S(=O)(=O)c1cccs1 (stereo unspecified) | . | -15 | . | -1.8 | .
CC1=C(C)CC(C(=O)NCC(=O)c2ccccc2)C(C(=O)O)C1 (stereo unspecified) | -35 | 6 | 4 | 0.8 | -6%
Cc1c(Cl)cnc(NC(=O)COC(=O)c2ccc3ncsc3c2)c1Cl | -35 | 19 | 0 | 11 | 2%
O=[N+]([O-])c1ccc(Cl)cc1N1CCCC1 | . | 0 | -4 | -1.4 | -7%
COc1ccc(C2C3=C(CC(C)(C)CC3=O)Oc3ncn4nc(-c5cccnc5)nc4c32)cc1 (stereo unspecified) | . | 0 | . | 3.7 | .
Cc1ccc(C(=O)N2CCN(S(=O)(=O)c3ccccc3)CC2)s1 | . | -2 | . | -4.8 | .
O=[N+]([O-])c1ccc(Cl)c(/C=N/n2c(C3CCCCC3)n[nH]c2=S)c1 | -4 | 9 | 19 | 2.1 | 2%
CCCc1ccc2c(N)c(C#N)sc2n1 | -57 | 2 | 14 | -1.9 | -6% | Arbovirus inh repeat=3
CN(C(=O)CSc1nnc2ccccn12)c1c(N)n(Cc2ccccc2)c(=O)[nH]c1=O | 5 | -4 | -2 | 0.9 | -8%
O=C(CCNC(=O)c1ccccc1Cl)NCC12CC3CC(CC(C3)C1)C2 | -19 | 3 | -10 | 0.5 | 1%
CN(C)C(=O)Oc1c(Cl)cc(Cl)c2cccnc12 | . | 3 | 1 | -2.6 | 1%
CCOc1cc(C(=O)Nc2ccc(S(=O)(=O)NC3=NCCCCC3)cc2)cc(Br)c1OC | . | 8 | . | 4.0 | .
C/C(=N\Nc1c(F)c(F)c(Br)c(F)c1F)c1ccncc1 | . | 36 | . | -1.2 | .
COc1ccc(CNC(=O)C2CCN(S(=O)(=O)c3cccc4cccnc34)CC2)cc1 | -31 | -3 | -7 | . | . | Arbovirus inh repeat=-1
N#Cc1c(NC(=O)CSc2nc3c(c(C(F)(F)F)n2)CCc2ccccc2-3)sc2c1CCCC2 | -43 | 21 | 6 | . | 7%
CCOC(=O)CN1C(=O)N[C@@H](c2ccccc2)[C@@H](C(=O)OC)[C@H]1C | . | -7 | . | 1.3 | -13%
O=C(c1ccccc1)C1CCN(c2ncccc2[N+](=O)[O-])CC1 | . | -4 | . | 1.8 | -7%
CC(C)CN1CCC(=O)N(CCSc2ccccc2)CC1 | . | -5 | . | 2.6 | .
